Source: PubChem (several laboratories)
Mtb bLac sens = beta-lactam sensitization of Mtb H37Rv; AID 434955; M. tuberculosis H37Rv growth with meropenem, percent inhibition; hits of this screen are not shown here; 330,000 tested, 0.27% active; inhibition, % at 25 µM;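 active = about 74% or more and at least 40 points above the plate without the antibiotic, then above 30% in a dose series; inconclusive = first-round hits that could not be retested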;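 note: growth measured after seven days incubation then overnight dye step; 0% = bacteria only wells and 100% = bacteria with antibiotic; twin plates without the antibiotic show which effects depend on it; some results filed as inactive read as strong as hits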
Arbovirus anti = arbovirus infection inhibition; arbovirus infection cell-based antiviral screen; inhibition, % at 10 µM; 200,000 tested, 0.37% active; AID 1251;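 active = inhibition from about 30%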;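 note: bluetongue infection of BSR cells; cell survival read as ATP light after 72 h; 0% = infected wells without compound and 100% = uninfected wells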
RecA splice inh = blocks M. tuberculosis RecA intein splicing | cell-free RecA intein splicing, fluorescence | P9WHJ3 | 290,000 tested, 0.75% active | inhibition, %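 (about 9 µM by stock and volumes)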; in the data active = inhibition above about 30%; inconclusive = no clear call, values can overlap the other calls;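 note: 0% = vehicle wells and 100% = reference inhibitor control wells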
Target sequence (P9WHJ3 whole entry, looked up, canonical isoform): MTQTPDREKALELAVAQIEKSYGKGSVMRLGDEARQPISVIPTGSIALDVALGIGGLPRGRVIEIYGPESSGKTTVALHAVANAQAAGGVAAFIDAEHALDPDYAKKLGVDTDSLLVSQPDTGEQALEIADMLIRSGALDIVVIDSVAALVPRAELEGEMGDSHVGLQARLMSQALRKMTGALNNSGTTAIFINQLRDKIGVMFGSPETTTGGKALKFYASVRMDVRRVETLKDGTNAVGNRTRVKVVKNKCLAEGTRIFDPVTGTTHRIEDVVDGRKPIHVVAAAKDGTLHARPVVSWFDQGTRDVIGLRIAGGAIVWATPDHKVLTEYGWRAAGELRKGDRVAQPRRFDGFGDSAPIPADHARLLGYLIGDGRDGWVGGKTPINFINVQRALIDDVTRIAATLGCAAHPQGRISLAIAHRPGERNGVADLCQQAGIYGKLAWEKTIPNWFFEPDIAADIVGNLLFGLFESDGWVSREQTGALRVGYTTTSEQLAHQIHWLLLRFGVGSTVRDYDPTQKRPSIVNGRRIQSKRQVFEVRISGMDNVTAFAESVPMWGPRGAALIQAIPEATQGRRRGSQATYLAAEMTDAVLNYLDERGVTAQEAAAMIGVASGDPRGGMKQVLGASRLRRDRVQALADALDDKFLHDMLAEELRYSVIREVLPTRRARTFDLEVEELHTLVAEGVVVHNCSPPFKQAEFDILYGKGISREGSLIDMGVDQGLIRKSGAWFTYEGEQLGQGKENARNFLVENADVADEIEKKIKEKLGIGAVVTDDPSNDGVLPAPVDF
Mtb H37Rv = M. tuberculosis H37Rv growth inhibitors, H37Rv strain (AID 1626). M. tuberculosis H37Rv growth inhibition; higher % means a stronger effect. 220,000 tested, 0.95% active. one-dose inhibition, % at 10 µM; IC50 in µM for titrated hits;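 active = confirmed in a dose series; inconclusive = inhibition above 80% but not taken into the dose series; inactive = below 80% or under 30% at every dose of the series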;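 note: bacteria incubated seven days before Alamar blue readout; 0% = bacteria only wells and 100% = bacteria with antibiotic wells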
YopH inh = YopH (Yersinia) phosphatase inhibition; 140,000 tested, 0.16% active; fluorescence Ex485/Em525; AID 898; inhibition, %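 (about 10 µM by stock and volumes)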;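 active = inhibition of 50% or more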;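 note: controls were vehicle for no effect and minimum signal wells for full effect; inactives centre near -20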
Arbovirus anti repeat = recorded beside Arbovirus anti, whose call it bears; inhibition, %; measured here: 10K subset replicate screen; many hits read low in the repeat;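 first of two repeat runs on a subset; 0% = infected and 100% = uninfected wells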
* hit, by the source's call; ? = inconclusive; / = no result given. A portion of the library; rates above refer to the full screens.

SMILES	Mtb bLac sens	Arbovirus anti	RecA splice inh	Mtb H37Rv	YopH inh	others
COc1ccc(NC(=O)C(C)N(c2ccc(C)cc2)S(C)(=O)=O)c(OC)c1 (centres undefined)	-5	-6	4.4	-3%	-13
CN(C)CCN1CC(O)=C(c2nc3ccccc3s2)C1=N	33	/	-7.4	-9%	/
Cc1ccc(OCC(=O)NNC(=O)Cn2nnc(-c3ccccc3)n2)cc1	-4	8	2.2	-5%	/
O=S(=O)(NCC(c1cccnc1)N1CCN(Cc2ccccc2)CC1)c1ccc(Cl)cc1 (centres undefined)	-5	/	3.9	/	/
Cc1cc(NC(=O)C2CCCO2)ccc1Br (centres undefined)	3	-1	1.0	2%	/
CCc1ccc(OCC(=O)N/N=C2\CC(=O)c3ccccc32)cc1	-13	-26	53*	57%	-10
COc1cc2c(cc1OC)C(C(=O)Nc1cc(C)c(OC)c(C)c1)CC(=O)N2 (centres undefined)	0	/	-0.1	/	/
COc1cc(C(=O)Nc2cccc(-c3nc4cc(C)ccc4o3)c2)cc(OC)c1OC	-4	-11	-3.8	4%	-12
O=C(CN1C(=O)C2CCCCC2C1=O)Nc1nc2ccc(F)cc2s1 (centres undefined)	-4	/	-1.5	/	/
CCCOc1ccc(/C(CC)=N/NC(=O)C2(C)CC2(Br)Br)cc1 (centres undefined)	-9	11	-1.5	0%	-20
CCOc1ccccc1NC(=O)CS(=O)(=O)c1cn(CC(=O)N2CCOCC2)c2ccccc12	-8	/	-1.1	/	/
Cc1ccc(S(=O)(=O)N(C)C)cc1NC(=O)COC(=O)c1sc2cc(Cl)ccc2c1Cl	4	/	-1.4	10%	/
COc1cc(Cc2cc(N)nc(N)n2)cc(OC)c1OC	-3	/	0.2	/	/
Cc1cc(C)cc(NS(=O)(=O)c2ccc(NC(=S)NC(=O)c3ccc(Br)o3)cc2)c1	3	-5	0.2	?	-11
COc1ccc(S(=O)(=O)NCC2CCCN(C(=O)C3CCCC3)C2)cc1 (centres undefined)	4	-3	1.9	-11%	/
COc1ccc(NC(=O)c2ccc(Cl)cc2)c[n+]1[O-]	4	/	0.6	/	/
CCOc1ccc(-n2cnc3sc4c(c3c2=O)CCCC4)cc1	0	/	0.1	4%	/
COC(=O)c1ccc(C(=O)OC)c(NC(=O)c2cccnc2)c1	-4	/	-3.9	/	/
O=C(c1ccccc1)N(Cc1ccco1)C1CCS(=O)(=O)C1 (centres undefined)	4	4	4.5	-14%	-14
Cc1cc(C)cc(NC(=S)N2CCN(c3ccccn3)CC2)c1	1	/	4.5	/	/
CCCCC(=O)NCCc1ccc(S(N)(=O)=O)cc1	2	1	-0.2	-5%	6
CCOc1cc(C(=O)OC(C)C(=O)Nc2ncc(Cl)cc2Cl)ccc1OCC(=O)N1CCOCC1 (centres undefined)	-6	-2	-0.1	4%	-22
Cc1nn(CC(=O)NCCc2ccccc2)c(=O)c2ccccc12	0	-7	0.0	-4%	-49
CCN1C(=NCCOC)N[C@@H](CCc2ccccc2)[C@H](C(=O)OC)[C@H]1C	2	/	-0.9	/	/
OCCN(CC(O)COc1ccccc1)CC(O)Cn1ccc2ccccc21 (centres undefined)	2	10	-2.9	6%	-13

Continuation:
SMILES	Mtb bLac sens	Arbovirus anti	RecA splice inh	Mtb H37Rv	YopH inh	others
Cc1ccsc1C(=O)N1CCCC(CCC(=O)N2CCN(c3ccccn3)CC2)C1 (centres undefined)	0	4	-1.6	1%	/
C=C(C)C(=O)Nc1cccc(C2=NOC3(C2)C[C@@H](C(N)=O)N(C(=O)CCCCC)C3)c1 (some centres undefined)	-6	/	-0.6	-4%	/
COc1ccc(CN=C(C)c2c(C(F)(F)F)[nH]n(-c3nc4ccccc4s3)c2=O)cc1	-10	-7	0.5	5%	8
CCCCOC(=O)c1ccc(NC(=O)CSCc2n[nH]c(=O)[nH]2)cc1	18	-1	/	-1%	-30	Arbovirus anti repeat=0
COc1ccccc1OCC(=O)Nc1ccc2c(c1)OCCO2	-1	/	-4.2	/	/
Nc1cccc(Oc2ccc3c(c2)C(=O)N(CC2CCCO2)C3=O)c1 (centres undefined)	2	/	0.0	0%	/
Nc1nc(-c2ccc(Cl)cc2)cc(C(F)(F)F)n1	5	11	-3.5	6%	-15
Cc1ccc2[nH]c(=O)c(CN3CCCCC3)c(-c3ccccc3)c2c1	39	4	8.6	6%	/
O=C(Nc1nnc(C2CC2)o1)c1ccc(S(=O)(=O)N2CCCc3ccccc32)cc1	83	-8	3.6	/	-49	Arbovirus anti repeat=-31
COc1cc(C)c(S(=O)(=O)N2CCOCC2)c(C)c1C	0	-1	0.1	-5%	/
Cn1ccc(NC(=O)Nc2ccc(Cl)cc2)n1	2	/	1.9	4%	/
C[C@H](NC(=O)N1CCn2c1nc1ccccc12)C(=O)NCc1ccc(F)cc1	2	/	1.3	/	/
Clc1ccc(N2CCN(Cc3ccccc3Cl)CC2)cc1	15	9	4.0	7%	9
Brc1ccc(-c2nnc(-c3cccnc3)c3conc23)cc1	61	/	7.8	-4%	-13
CCCN1CCC(NC(=O)C2CCN(C(C)=O)CC2)CC1	9	/	0.5	/	/
CC1=NNC(=O)C1CCC(=O)N/N=C(\C)c1ccccc1 (centres undefined)	-8	5	1.7	-4%	/
N#Cc1ccc(N2CCOCC2)c([N+](=O)[O-])c1	7	-7	0.8	-4%	/
CCOC(=O)/C(C#N)=C/c1ccc(N2CCCCC2)cc1	-2	-6	/	-4%	/
CCCOc1ccc(C(=O)NNC(=S)NC(=O)c2ccccc2)cc1	97	/	1.9	/	/
Cc1nc(-c2ccccc2)sc1-c1n[nH]c(=S)n1C	5	2	1.2	1%	-19
Cc1ccccc1CN1CCSc2sccc2C1=O	-9	-3	1.9	8%	/
COc1ccc(N(C(=O)Cn2nnc(-c3ccccc3F)n2)C(C(=O)NCC2CCCO2)c2ccc(Cl)cc2)cc1 (centres undefined)	0	3	1.7	-7%	/
C/C(CC(O)(/C=N/O)c1ccccc1)=N\O (centres undefined)	?	-2	-2.3	4%	27
COc1ccc(-n2c3c(cc(C(=O)Nc4cccc(C)n4)c2=O)C(=O)CC(C)(C)C3)cc1	-1	-5	-0.4	-1%	/
CCOC(=O)C(C#N)c1ccccn1 (centres undefined)	-16	2	-4.0	-4%	-29

Carrying on:
SMILES	Mtb bLac sens	Arbovirus anti	RecA splice inh	Mtb H37Rv	YopH inh	others
O=C(COC(=O)c1ccco1)NCc1ccc(F)cc1	1	9	-0.8	1%	/
O=[N+]([O-])c1ccc(NC(=S)NCc2ccc(F)cc2)cc1	-1	/	7.0	/	/
COc1cc(C)c(N(C(C)=O)c2ccccc2)c(C)c1	3	-4	9.9	5%	-32	Arbovirus anti repeat=4
CC(c1ccccc1)c1nnc(NC(=O)Nc2ccccc2)s1 (centres undefined)	1	/	-0.5	/	/
CCC(C(=O)Nc1ccccn1)c1ccccc1 (centres undefined)	10	/	1.5	/	/
O=C(Nc1nnc(-c2ccco2)o1)c1ccc(S(=O)(=O)N2CCCC2)cc1	81	-4	0.6	42%	/
COc1ccc(F)cc1C(=O)C1CCCN(Cc2ccc(O)cc2)C1 (centres undefined)	-3	/	1.0	/	/
COc1ccc(-n2cnc3cc(NC(=O)c4ccco4)ccc32)cc1	64	-1	-1.5	0%	4
COc1ccc(-c2nnc3sc(CCN4C(=O)c5ccccc5C4=O)nn23)cc1	-4	2	-5.0	-18%	-5
O=C(NC1CCCCC1)c1ccccc1NC(=O)C1CC1	-16	-9	1.6	2%	-22
Cc1ccc(S(=O)(=O)Cc2ccc(C(=O)N3CCc4ccccc4C3)o2)cc1	1	2	2.4	-3%	-3
CC(C(=O)NCC1CCCO1)n1cc([N+](=O)[O-])cn1 (centres undefined)	-5	5	-0.1	3%	/
COc1ccc2c(N)c(C(=O)NN)[nH]c2c1	-9	/	5.8	-10%	/
O=S(=O)(NC1c2cccc3cccc(c23)C1Sc1ncccn1)c1ccccc1 (centres undefined)	-7	7	14	11%	-23
Cc1cccn2c(=O)c3cc(C(=O)NCC4CCCO4)c(=N)n(Cc4ccc(F)cc4)c3nc12 (centres undefined)	6	/	-398	/	/
Cc1cc(C)cc(NC(=S)N(CCN(C)C)C(C)c2cccnc2)c1 (centres undefined)	-4	6	0.8	3%	/
COc1ccc(CCNC(=O)COC(=O)Cn2cnc3ccccc3c2=O)cc1	3	/	1.6	0%	/
Cc1ccc(CNS(=O)(=O)c2ccc3c(c2)NC(=O)C(C)S3)cc1 (centres undefined)	7	/	-0.9	/	/
CCCC(=O)Nc1ccc(C(=O)Nc2ccc([N+](=O)[O-])cc2OC)cc1	1	0	1.4	6%	/
Cc1[nH]c2ccccc2c1SCCNC(=O)c1ccc(S(=O)(=O)N2CCCC2)cc1	-3	-16	4.1	12%	-31
CCN1CCN(S(=O)(=O)c2cc(OC)c(Cl)cc2OC)CC1	-3	5	0.2	-10%	-25
CC/C(=C\C(=O)c1ccncc1)Nc1ccc(Br)cc1	-4	-24	-2.5	1%	-28
NS(=O)(=O)c1ccc(N=NN2CCCCC2)cc1	-4	5	-3.7	-10%	/
Cc1ccc(C(=O)NCCN2C3=NC[C@H](C(C)C)N3C[C@H]2Cc2ccc(O)cc2)cc1Br	0	4	2.1	2%	/
O=[N+]([O-])c1ccc(Cl)c(S(=O)(=O)Nc2cccc(-c3ccc(N4CCCC4)nn3)c2)c1	0	/	10	/	/

18 structures from above, sorted by formula weight, falling:
SMILES	Mtb bLac sens	Arbovirus anti	RecA splice inh	Mtb H37Rv	YopH inh	others
COc1ccc(N(C(=O)Cn2nnc(-c3ccccc3F)n2)C(C(=O)NCC2CCCO2)c2ccc(Cl)cc2)cc1 (centres undefined)	0	3	1.7	-7%	/
Cc1cc(C)cc(NS(=O)(=O)c2ccc(NC(=S)NC(=O)c3ccc(Br)o3)cc2)c1	3	-5	0.2	?	-11
Cc1ccc(S(=O)(=O)N(C)C)cc1NC(=O)COC(=O)c1sc2cc(Cl)ccc2c1Cl	4	/	-1.4	10%	/
CCOc1ccccc1NC(=O)CS(=O)(=O)c1cn(CC(=O)N2CCOCC2)c2ccccc12	-8	/	-1.1	/	/
COc1ccc(CN=C(C)c2c(C(F)(F)F)[nH]n(-c3nc4ccccc4s3)c2=O)cc1	-10	-7	0.5	5%	8
Cc1ccsc1C(=O)N1CCCC(CCC(=O)N2CCN(c3ccccn3)CC2)C1 (centres undefined)	0	4	-1.6	1%	/
O=S(=O)(NC1c2cccc3cccc(c23)C1Sc1ncccn1)c1ccccc1 (centres undefined)	-7	7	14	11%	-23
COc1ccc(CCNC(=O)COC(=O)Cn2cnc3ccccc3c2=O)cc1	3	/	1.6	0%	/
CCCOc1ccc(C(=O)NNC(=S)NC(=O)c2ccccc2)cc1	97	/	1.9	/	/
CCN1CCN(S(=O)(=O)c2cc(OC)c(Cl)cc2OC)CC1	-3	5	0.2	-10%	-25
CC/C(=C\C(=O)c1ccncc1)Nc1ccc(Br)cc1	-4	-24	-2.5	1%	-28
COc1ccccc1OCC(=O)Nc1ccc2c(c1)OCCO2	-1	/	-4.2	/	/
O=[N+]([O-])c1ccc(NC(=S)NCc2ccc(F)cc2)cc1	-1	/	7.0	/	/
Cc1cc(NC(=O)C2CCCO2)ccc1Br (centres undefined)	3	-1	1.0	2%	/
Nc1nc(-c2ccc(Cl)cc2)cc(C(F)(F)F)n1	5	11	-3.5	6%	-15
COc1cc(C)c(N(C(C)=O)c2ccccc2)c(C)c1	3	-4	9.9	5%	-32	Arbovirus anti repeat=4
COc1ccc2c(N)c(C(=O)NN)[nH]c2c1	-9	/	5.8	-10%	/
CCOC(=O)C(C#N)c1ccccn1 (centres undefined)	-16	2	-4.0	-4%	-29

Continued.
SMILES	Mtb bLac sens	Arbovirus anti	RecA splice inh	Mtb H37Rv	YopH inh	others
O=C(Nc1cccc(F)c1)C1CC(=O)N(c2ccc(Cl)cc2)C1 (centres undefined)	-6	11	-7.2	5%	7
Nc1c2nc(-c3ccccc3Cl)[nH]c(=O)c2nc(=O)n1-c1ccccc1	51	/	-1.7	-2%	/
COc1ccc(C(=O)N/N=C/c2ccc(OC)c(CSc3ccccn3)c2)cc1	-4	-4	/	2%	-35
COc1ccc(/C=N/N2CCN(C)CC2)cc1O	-6	0	-7.5	-5%	-33
O=C(O)c1ccccc1C(=O)Nc1ccc(-n2nccc2C(F)(F)F)cc1	95	/	-0.5	73%	/
Cc1cc(C2=NNC(=NC3CC3)SC2)c(C)n1-c1ccccc1	/	0	0.1	4%	-10
Cc1ccc(C)c(N2CCN(C(=O)Cn3c(=O)[nH]c4ccsc4c3=O)CC2)c1	10	0	1.2	-8%	-28
O=C1OC(c2ccccc2)=N/C1=C\C=C\c1ccccc1[N+](=O)[O-]	29	-3	0.8	-3%	-4
Cc1ccc(C)c(N2CCN(C(=O)Nc3ccc4c(c3)N(C)C(=O)CS4)CC2)c1	67	-22	14	7%	/
